Screening data deposited in PubChem BioAssay by several laboratories.
CSC inhib – cancer stem cell viability inhibitors, primary screen, luminescence; cancer stem cell-like cells viability; inhibition, % at 7.5 µM; hit rate 1.1% among 300,000; AID 2717, 2010;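 active = mean at 75% or more and at least half the replicates too; inconclusive = mean and replicates disagree; tested in HMLE shEcad cells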;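 note: 0% = median of negative and 100% = median of positive control wells; the first replicate is given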
eIF4H FP inh – human eIF4H binding inhibitors, primary screen, translation initiation inhibitor project, biochemical, uHTS, fluorescence polarization | Eukaryotic translation initiation factor 4H (Homo sapiens), Q15056 | eIF4H fluorescence polarization binding assay | inhibition, % at 35 µM | hit rate 0.94% among 290,000;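 active = 50% or more with normal probe brightness, or confirmed in later tests; inconclusive = above 50% with abnormal brightness, or retests that disagree; inactive = below 50% or failed in later tests; about a fifth of its hits are not listed in these tables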;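 note: calls also rest on retests at 20 µM and on dose response follow-up; 0% = protein and probe with vehicle and 100% = probe without protein; strong numbers were not always called active; many hits fall short of the cut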
HIV Env fusion – inhibitors of HIV-1 Env-driven cell-cell fusion, primary screen, HeLa-JRFL effector, CEM21 target cells, luciferase; inhibition, % at 12.3 µM; AID 651610, 2012; hit rate 1.1% among 360,000;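 active = mean replicate inhibition score of at least 50 and every replicate individually at or above 50; inconclusive = only one of the two criteria met; inactive = mean below 50 and not all replicates reaching 50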;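 note: 0% = plate neutral controls and 100% = maraviroc near 300 nM; one replicate is shown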
UUG fidelity – modulators of yeast start codon fidelity, primary screen, whole organism, S. cerevisiae, single point, plate reader. S. cerevisiae UUG-firefly luciferase reporter, luminescence/redox ratio. activity score, % at 18.7 µM. hit rate 0.13% among 350,000. AID 602363, 2012;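 active = replicate mean at a twofold rise or more, about +100% in these data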;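 note: firefly luciferase made from a UUG start codon reports start codon fidelity; reporter light over untreated wells divided by growth signal over untreated wells; some hits fall short of that in this replicate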
MT1-MMP act inh – blockers of MT1-MMP proenzyme processing, primary screen, HT1080 RFP-PRO-GFP cells, GFP/RFP fluorescence; AID 651647, 2012; Matrix metalloproteinase-14 (Homo sapiens), P50281; GFP/RFP ratio fluorescence, overnight; percent of plate control window, DMSO zero; hit rate 0.061% among 360,000; GFP/RFP ratio change, % at 20 µM;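 active = GFP/RFP ratio change of at least 30% with cell ATP level not reduced by more than half and red fluorescence within 50% of control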; note: strong numbers were not always called active
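Material: RFP-PRO-GFP reporter HT1080 cells. Dosing: single-point 20 µM compound, 1% DMSO. Controls: DMSO and RFP-L50D-GFP cell wells. Timing: cells overnight before dosing, compound overnight, 37 °C, 5% CO2. Measure: GFP/RFP fluorescence ratio.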
Rce1 inh – yeast Rce1p protease inhibitors, primary screen, biochemical, fluorescence, cell-free homogeneous | yeast membranes, quenched prenylated peptide cleavage fluorescence | calls only | hit rate 0.27% among 290,000;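 active = fall in fluorescence gain of 50% or more versus controls, with final raw signal at or below 3038400; inconclusive = same 50% fall but final raw signal above 3038400; inactive = fall in fluorescence gain under 50%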;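 note: plate controls were neutral control wells for no effect and wells lacking membranes for full effect; tested at 10 µM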
PABP FP inh – PABP poly(A) RNA binding inhibitors, primary screen, biochemical, fluorescence polarization, uHTS; inhibition, % at 35 µM; hit rate 1% among 290,000;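 active = 50% or more with normal probe brightness, or confirmed in later tests; inconclusive = above 50% with abnormal brightness, or retests that disagree; inactive = below 50% or failed in later tests; about a fifth of its hits are not listed in these tables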;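 note: calls also rest on retests at 20 µM and on dose response follow-up; controls were probe without protein and protein plus probe with vehicle; some compounds called inactive have numbers as strong as hits; many hits fall short of the cut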
Target sequence (P11940 whole entry, looked up): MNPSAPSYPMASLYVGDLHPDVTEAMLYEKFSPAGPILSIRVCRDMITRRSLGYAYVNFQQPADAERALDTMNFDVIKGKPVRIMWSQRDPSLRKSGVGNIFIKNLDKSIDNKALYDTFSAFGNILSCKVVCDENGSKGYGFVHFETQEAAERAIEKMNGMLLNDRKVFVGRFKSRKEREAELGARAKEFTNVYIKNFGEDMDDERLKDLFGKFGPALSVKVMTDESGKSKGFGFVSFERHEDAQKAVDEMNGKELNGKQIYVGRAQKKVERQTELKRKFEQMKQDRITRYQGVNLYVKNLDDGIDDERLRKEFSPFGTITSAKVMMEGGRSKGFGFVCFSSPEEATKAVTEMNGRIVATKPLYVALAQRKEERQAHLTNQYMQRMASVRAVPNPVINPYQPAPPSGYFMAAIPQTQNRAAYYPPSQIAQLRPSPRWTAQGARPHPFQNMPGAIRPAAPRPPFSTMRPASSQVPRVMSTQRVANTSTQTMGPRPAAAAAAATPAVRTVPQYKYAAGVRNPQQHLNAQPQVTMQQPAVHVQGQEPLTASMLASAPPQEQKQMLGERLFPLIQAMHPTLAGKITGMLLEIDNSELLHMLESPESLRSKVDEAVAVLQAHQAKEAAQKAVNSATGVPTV
MT1-MMP act inh RFP – also measured in MT1-MMP act inh; calls as there; RFP signal change, %; measured here: RFP expression control read;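 0 = vehicle wells; hits needed this value within 50% of zero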
Active calls of the source: *; i = inactive; ? = inconclusive; . = not tested or not shown.

SMILES | CSC inhib | eIF4H FP inh | HIV Env fusion | UUG fidelity | MT1-MMP act inh | MT1-MMP act inh RFP | Rce1 inh | PABP FP inh
S=c1[nH]nc(COc2ccccc2)n1/N=C/c1ccccc1Br | -3 | 3 | 15 | -12 | 5 | -2 | i | -2
Cc1cc(C)n(-c2cc(Cl)cc(Cl)c2)c(=O)c1C#N | -7 | 4 | . | . | 5 | 1 | i | -4
CCN1C=C(C(=O)c2ccccc2)C(=O)CC1 | . | . | 5 | -18 | 2 | 4 | . | .
CCCc1nn(C)c(C(=O)Nc2ccc(CC)cc2)c1Cl | 8 | -4 | . | . | 4 | -5 | i | -5
O=C(CC1S/C(=N/N=C2CCCCCC2)NC1=O)Nc1ccccc1C(F)(F)F (stereo not drawn) | 8 | -3 | 6 | -18 | 5 | 0 | i | -4
COc1ccc(NS(=O)(=O)c2ccc(NC(=O)c3ccccc3Br)cc2)nn1 | -13 | -12 | 8 | -1 | -5 | 0 | i | 2
COCCCn1c(SCC(=O)NC2CCS(=O)(=O)C2)nnc1-c1ccc(Cl)cc1 (stereo not drawn) | 11 | . | -2 | 12 | 2 | 0 | . | .
COc1ccc(Br)cc1/C=N/NC(=O)c1ccc(COc2ccc3c(c2)CCC3)o1 | . | ? | . | -13 | 2 | 0 | i | ?
CC(=O)N1CCc2c(sc(NC(=O)CS(=O)(=O)c3ccc(F)cc3)c2C#N)C1 | 6 | . | -37 | -11 | -1 | -3 | i | .
CCn1cc(C(=O)NC(C)C2CC3CCC2C3)cn1 (stereo not drawn) | 1 | 1 | 6 | . | 3 | 4 | i | 5
O=S(=O)(/C=C/c1ccccc1)N1CCN(Cc2ccccc2)CC1 | -6 | -7 | -15 | 0 | -2 | 0 | i | 6
CCOC(=O)CN1C(=O)N[C@@H](c2cccc(F)c2)C(C(C)=O)=C1C | -10 | . | -10 | -7 | 3 | -1 | i | .
Cc1cccc(N(C(=O)c2snc(C(N)=O)c2N)C(C(=O)NCC2CCCO2)c2cccs2)c1 (stereo not drawn) | -7 | -9 | 12 | . | -5 | -4 | i | -1
Cn1c(N)c(C(=O)Nc2ccccc2)c(=O)[nH]c1=O | -4 | . | -20 | . | . | . | i | .
O=[N+]([O-])c1ccc(N2CCN(c3ccccc3)CC2)nc1 | 12 | 0 | -6 | . | 4 | 0 | i | 4
COc1ccc(Br)cc1CN1CCN(C(=O)c2ccc(F)cc2)CC1 | 0 | 0 | 1 | -4 | 0 | -1 | i | -2
CCOc1cc(NC(=S)NCCCN2CCOCC2)c(OCC)cc1NC(=O)c1ccccc1C | -11 | 1 | -3 | . | 1 | 2 | i | -7
CCCCN(CC)C(=O)CSc1nc2c(sc(=S)n2-c2ccc(OCC)cc2)c(=O)[nH]1 | . | -8 | 29 | -20 | 4 | 4 | i | 2
Cc1ccsc1C1C(C#N)=C(N)Oc2n[nH]c(C)c21 (stereo not drawn) | 4 | -7 | -13 | -21 | -3 | -3 | i | 22
Cc1cc2nc(C3CCCN(C(=S)Nc4ccccc4C)C3)[nH]c2cc1C (stereo not drawn) | . | -8 | 15 | -9 | 6 | 3 | i | -4
Nc1nonc1C(=O)N/N=C/c1ccc(-c2ccc(Cl)c(C(=O)O)c2)o1 | -4 | 32 | -4 | . | 1 | -1 | i | 30
CCOC(=O)N1CCC(NC(=O)c2cc(C(=O)NCC(OC)OC)ccc2CO)CC1 | . | -12 | -6 | -6 | 2 | 4 | i | 2
COc1ccc(C2/C=C\CN(C(=O)Nc3ccccc3)CC(=O)N2Cc2ccc(F)cc2)cc1 (stereo not drawn) | -3 | -4 | 15 | -23 | -1 | 0 | i | -2
CC(=O)c1ccc(NC(=O)N[C@@H](Cc2ccccc2)C(=O)O)cc1 | -5 | 1 | . | -18 | 0 | 8 | i | -6
COc1ccc(S(=O)(=O)N2CCC(C(=O)NCC3CCCO3)CC2)cc1Cl (stereo not drawn) | -4 | -5 | 14 | . | 1 | 1 | i | -13
Cc1nn(Cc2ccc(F)cc2)c(C)c1NC(=O)c1cnn2c1NC(c1ccccc1)CC2C(F)(F)F (stereo not drawn) | . | 0 | . | 13 | 1 | -3 | . | -9
Cc1ccc(NC(=O)CSc2ccc3c(c2)OCCO3)c(O)c1 | -26 | -11 | 41 | -14 | -1 | -23 | i | -5
O=C(Cc1ccccc1)NCc1n[nH]c(=S)n1-c1ccc(Br)cc1 | -12 | 3 | 11 | . | -2 | -1 | i | -4
S=C1SCN(CC2CC2)CN1CC1CC1 | -6 | -7 | -43 | . | 0 | 6 | i | 2
COc1ccc(CNC(=O)C[C@H]2C(=O)N(Cc3ccccc3)C[C@@H]2Cc2ccccc2)cc1 | -22 | -6 | -4 | -10 | -2 | -3 | i | -2
Cc1ccc(NC(=O)c2ccc(OC(=O)c3ccco3)cc2)cc1 | -2 | -7 | . | -14 | -1 | 0 | i | -6
O=C(c1cc(S(=O)(=O)N2CCOCC2)ccc1F)N1CCN(Cc2ccccc2)CC1 | 7 | -3 | -28 | -8 | 1 | 0 | i | 8
CC(=O)Oc1c(Cl)c(N2CCOCC2)c(OC(C)=O)c2ccccc12 | 23 | -5 | -50 | -12 | -14 | -1 | i | -16
COc1ccc(C)cc1NC(=O)CSc1ccc(Cl)cc1 | -1 | 1 | 12 | . | 0 | -4 | i | -4
O=C1CN(C(=O)COc2ccc(Br)cc2Br)c2ccccc2N1 | -8 | -5 | -12 | . | -3 | -4 | i | -8
Cc1ccc(OC(=O)CCS(=O)(=O)c2ccc(C)cc2)cc1 | -5 | -1 | -189 | 11 | 2 | -1 | i | -1
O=C(Cc1ccc(F)cc1)Nc1ccc(Cl)cn1 | -13 | 2 | -7 | 5 | -5 | -4 | i | 1
CC(C)CNC(=O)c1ccc2c(c1)C(=O)N(C1CCCCC1)C2=O | -1 | -2 | -14 | -4 | -11 | -9 | i | 10
CCc1ccccc1NC(=O)CN(c1ccc(OC)cc1OC)S(=O)(=O)c1ccccc1[N+](=O)[O-] | -8 | -7 | 55* | . | -3 | -3 | i | -3
Cc1ccccc1S(=O)(=O)N1C[C@H]2CON(C)[C@H]2C[C@H]1c1cccc(-c2ccc(C#N)cc2)c1 | . | . | -58 | -13 | -6 | -6 | . | .
N#Cc1ccc(OCC(=O)Nc2nc(-c3ccncc3)cs2)cc1 | . | . | -15 | -13 | 2 | 0 | . | .
O=C(CCNC(=O)c1ccccc1)Nc1ccc(F)c(Cl)c1 | -13 | 3 | 6 | . | 1 | 7 | i | -2
COc1ccc(-c2[nH]ncc2CN(C)Cc2cnccn2)c(OC)c1 | -7 | 2 | 7 | -21 | -5 | 0 | i | 1
O=C1CCC(C(=O)N(c2ccccc2)C2(C(=O)NC3CCCCC3)CCCCC2)N1 (stereo not drawn) | 0 | -1 | . | 8 | -4 | -1 | . | 4
COc1ccc(S(=O)(=O)N(C)C[C@H]2Oc3ccc(NS(=O)(=O)c4c(C)noc4C)cc3C(=O)N([C@H](C)CO)C[C@@H]2C)cc1 | -4 | . | -8 | 13 | -2 | 1 | . | .
C=CCn1c(SCC(=O)N2CCCC2)nc2scc(-c3cccs3)c2c1=O | -6 | 11 | -9 | -14 | -10 | -8 | i | 2
Cc1ccccc1N=Cc1c(O)n(-c2nccs2)c(=O)c2ccccc12 | -2 | -5 | -27 | 0 | -2 | 0 | i | -13
COc1ccc(C(=O)NCCSCc2ccc(C)cc2)cc1 | . | 5 | . | -17 | 1 | 4 | i | 14
Cc1ccc(C(=O)N2CCCC(Nc3ccc(F)cc3)C2)cc1C (stereo not drawn) | 6 | 9 | -5 | -11 | 1 | 1 | i | -1
CC(C)COC(=O)c1ccc2c(c1O)C(=O)c1ccccc1C2=O | 21 | -3 | -324 | -29 | -6 | 13 | i | 24
CCOC(=O)C(NC(C)=O)(Nc1ccc(S(=O)(=O)Nc2nccs2)cc1)C(F)(F)F (stereo not drawn) | 2 | -16 | -28 | -11 | 5 | 4 | i | -3
CCN1CCN(c2ccc(S(=O)(=O)N(CC)CC)cc2[N+](=O)[O-])CC1 | 0 | 0 | . | . | 4 | 0 | i | -5
CC(C)CC1NC(=O)N(CC(=O)N2CCN(S(=O)(=O)c3ccc4ccccc4c3)CC2)C1=O (stereo not drawn) | 3 | 1 | . | . | -1 | -4 | i | -12
CC(C)(C)NC(=O)C(c1ccc(F)cc1)N(Cc1ccco1)C(=O)Cn1nnc(-c2cccs2)n1 (stereo not drawn) | -33 | -8 | -253 | -6 | 3 | 1 | i | 6
COc1cc2c(cc1OC)CN(Cc1cc(=O)n3c(-c4ccccc4)csc3n1)CC2 | 13 | 5 | -9 | . | -6 | -2 | i | -12
CCOc1ccccc1NC(=O)CN(c1ccc(OC)cc1)S(=O)(=O)c1c(C)noc1C | 58 | -8 | 6 | -3 | -3 | -11 | i | -6
CCCc1cc(=O)[nH]c(SC/C=C/c2ccccc2)n1 | 11 | . | 0 | -33 | -3 | -2 | i | .
C=CCNc1nc(Nc2ccc(OC)cc2OC)nc(OCC)n1 | -6 | -4 | -200 | -9 | 8 | -2 | i | -1
CC(=O)COc1ccc2c(c1C)O/C(=C\c1ccco1)C2=O | 17 | 23 | -64 | -7 | -3 | 0 | i | 14
Cc1nc(=O)c(-c2ccccc2)c(C)n1Cc1ccccc1 | -2 | -14 | . | 5 | -2 | 2 | . | -7

3 entries from above, ordered by their value in MT1-MMP act inh RFP, falling:
smiles,HIV Env fusion,UUG fidelity,MT1-MMP act inh,MT1-MMP act inh RFP,Rce1 inh
O=S(=O)(/C=C/c1ccccc1)N1CCN(Cc2ccccc2)CC1,-15,0,-2,0,i
CC(=O)Oc1c(Cl)c(N2CCOCC2)c(OC(C)=O)c2ccccc12,-50,-12,-14,-1,i
O=C1CN(C(=O)COc2ccc(Br)cc2Br)c2ccccc2N1,-12,.,-3,-4,i

Next compounds follow:
SMILES | CSC inhib | eIF4H FP inh | HIV Env fusion | UUG fidelity | MT1-MMP act inh | MT1-MMP act inh RFP | Rce1 inh | PABP FP inh
CCN(C(=O)c1cc2ccccc2oc1=O)c1cccc(C)c1 | -3 | 4 | -27 | -2 | 7 | 6 | i | -7
COc1ccc(C2=NOC(C(=O)NC(C)C)C2)cc1 (stereo not drawn) | -3 | 2 | -33 | -13 | 5 | 13 | i | -5
COc1ccc(N(CCC#N)S(=O)(=O)c2ccc(Cl)cc2)cc1 | -9 | 5 | -50 | . | -3 | -3 | i | 9
CC(=O)NC(C)(c1ccccc1)c1nc(-c2ccc(F)c(Cl)c2)cs1 (stereo not drawn) | . | . | -2 | -3 | -1 | -3 | . | .
CCN(C(=O)COC(=O)CNC(=O)c1ccc(C)s1)c1ccccc1 | -16 | 7 | 6 | . | 5 | 9 | i | -6
Cc1cccc(C)c1NC(=O)COC(=O)c1cc(=O)c2ccccc2o1 | -9 | 0 | -6 | -21 | -2 | 0 | i | -1
O=C(COc1ccccc1)NC(=S)Nc1cccc([N+](=O)[O-])c1 | -20 | 16 | -2 | -7 | 4 | 3 | i | 12
CCC(C)NCCCCOc1cc(C)cc(C(C)C)c1 (stereo not drawn) | 51 | 2 | 2 | . | 6 | 3 | i | 6
COc1ccc(C(NC(=O)C2CCN(CCc3ccccc3)CC2)c2ccccn2)cc1 (stereo not drawn) | . | . | 4 | -11 | -1 | 5 | . | .
CCOC(=O)C(=O)CC(=O)c1ccc2c(c1)OCCO2 | 4 | 8 | -13 | -4 | -1 | -3 | i | -8

A portion of the library (hit frequency here may not be typical).
